Sfp PPTase inh = qHTS Assay for Inhibitors of Bacillus subtilis Sfp phosphopantetheinyl transferase (PPTase); 4'-phosphopantetheinyl transferase ffp (Bacillus subtilis), Q9F4F7; Biochemical Sfp PPTase activity, qHTS; Potency, µM, inactives show max response, negative = inhibition, usual class: inhibitors; hit rate 3.5% among 310,000; active = well fitted inhibition curve with a large enough effect; inconclusive = small, poorly fitted or top-dose-only effect, or another doubt; inactive = no such curve, though single readings can be large or run the other way;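 note: the enzyme is Sfp with the accession as filed and its product quenches rhodamine fluorescence; potency is the fitted concentration of half-maximal effect; 0% = enzyme reaction without inhibitor and -100% = no enzyme wells; top concentration of the series not given in the record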
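Sfp 15 nM + cpd, 15 min RT; start w/ rhodamine-CoA 5 uM, BHQ-2-YbbR 12.5 uM (final); 50 mM Hepes pH 7.6, 10 mM MgCl2, 0.01% NP-40, 0.01% BSA; read 525/598 nm at 0 and 30 min.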
CtBP-E1A blk = qHTS Assay for Inhibitors of the CtBP/E1A Interaction; CtBP / adenovirus E1A interaction (AlphaScreen); AlphaScreen GST-E1A/His-CtBP binding, 1536-well; stronger effect = lower value; control for the full effect not named in the record; activity change, % (test concentration not listed); hit rate 0.49% among 340,000; AID 651724, 2012; in the data active means activity change below about -65%; inconclusive means about -30% to -65%; inactive means above about -30%; note: % is set by controls: 0 for no effect and ±100 for the full control effect; compound concentration not given in the record
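GST-E1A and His-tagged CtBP (125 nM each as 5X stock) were preincubated with pin-transferred compound for 2 h at 37 °C in the dark, then glutathione donor and nickel acceptor beads were added for 1 h before AlphaScreen reading.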
D2 ag = Beta-Arrestin HTS for Positive Allosteric Modulators of the Human D2 Dopamine Receptor: Agonists; D(2) dopamine receptor (Homo sapiens), P14416; DiscoveRx PathHunter D2 beta-arrestin, luminescence, 90 min; 100% = 57 uM dopamine signal; activation, % (test concentration not listed); hit rate 0.084% among 360,000; AID 624465, 2012; in the data active = activation above about 40%; inconclusive = about 15% to 40%; inactive = below about 15%; note: compound concentration not given in the record; the text of the record calls up to 30% inactive
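DiscoveRx PathHunter D2 beta-arrestin cells (2,100/well) attached overnight, then compound-stimulated 90 min at 37 C in HBSS/10 mM HEPES/0.1% Tween-20 buffer; beta-galactosidase complementation read by luminescence after 1 h at ambient temperature. Dopamine 57 uM final (EC100) as control.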
PINK1 expr mod = A Quantitative High throughput Screen to Identify Chemical Modulators of PINK1 Expression | Potency, µM (titrated, usually from 76.6 µM), inactives show at the top dose activation (PINK1 increase), actives largely listed as activators | hit rate 0.2% among 410,000 | PINK1 immunofluorescence, high-content cytometry, 24 h; active = well fitted activation curve with a large enough effect; inconclusive = small, poorly fitted or top-dose-only effect; inactive = flat fitted curve, though single readings scatter; cell line not stated here;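 note: potency is the fitted concentration of half-maximal effect; % of control where 0% means no effect; nearly all actives have a fitted effect of over 65% in size; a mitochondrial uncoupler was the plate control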
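Stable cell line, 250 cells/well, 12 h attachment; compounds pinned at 5 concentrations, 24 h; CCCP control. Fixed with nuclear dye, primary antibodies 12 h at 10 degrees C, secondary plus cell stain; laser-scanning cytometer read.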
TRPV1 PAM = HTS Assay for Compounds that Act as Potentiators of the Vanilloid Receptor 1. Transient receptor potential cation channel subfamily V member 1 (Homo sapiens), Q8NER1. TRPV1-expressing cells, Fluo-8 calcium influx, capsaicin EC20 potentiation; host cell line not named in the record; control for the full effect not named in the record. potentiation, % at 8.33 µM. hit rate 0.02% among 320,000. AID 540277, 2011; active means potentiation above 80%; inconclusive means 30% to 80%; inactive means below 30%; note: 0% is about no effect
Target sequence (Q8NER1 whole entry, looked up): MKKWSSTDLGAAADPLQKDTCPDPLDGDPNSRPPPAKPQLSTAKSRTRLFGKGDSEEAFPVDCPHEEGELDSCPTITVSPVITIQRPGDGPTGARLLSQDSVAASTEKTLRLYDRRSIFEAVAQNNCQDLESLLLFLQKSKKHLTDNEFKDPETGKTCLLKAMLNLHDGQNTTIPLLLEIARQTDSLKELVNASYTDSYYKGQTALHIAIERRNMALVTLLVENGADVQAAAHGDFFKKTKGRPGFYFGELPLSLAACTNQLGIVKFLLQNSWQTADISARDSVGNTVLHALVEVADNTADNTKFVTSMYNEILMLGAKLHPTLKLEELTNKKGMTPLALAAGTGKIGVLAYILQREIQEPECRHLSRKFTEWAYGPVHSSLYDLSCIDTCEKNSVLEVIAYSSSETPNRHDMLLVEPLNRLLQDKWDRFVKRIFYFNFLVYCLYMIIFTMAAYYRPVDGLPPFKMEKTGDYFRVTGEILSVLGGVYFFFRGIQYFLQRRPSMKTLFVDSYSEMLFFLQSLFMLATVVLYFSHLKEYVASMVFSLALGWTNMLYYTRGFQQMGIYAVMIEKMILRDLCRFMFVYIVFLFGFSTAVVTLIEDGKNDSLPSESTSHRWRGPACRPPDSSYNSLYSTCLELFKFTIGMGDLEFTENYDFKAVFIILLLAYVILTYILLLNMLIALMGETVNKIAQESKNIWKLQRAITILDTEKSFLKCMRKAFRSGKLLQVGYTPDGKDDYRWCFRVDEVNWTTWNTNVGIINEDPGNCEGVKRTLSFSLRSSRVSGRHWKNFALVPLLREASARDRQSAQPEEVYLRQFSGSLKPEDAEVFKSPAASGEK
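TRPV1-expressing cells were cultured overnight at 35.5C and loaded with Fluo-8 calcium dye for 40 to 90 min at room temperature. After a 10 s baseline, compound was added and calcium influx was read kinetically for 3 min (ex 480/em 520 nm).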
Six1-Eya2 blk = qHTS Assay for Inhibitors of the Six1/Eya2 Interaction; AID 651725, 2012; AlphaScreen GST-Six1/His-Eya2 binding, biochemical; stronger effect = lower value; control for the full effect not named in the record; activity change, % (no concentration beside the values); hit rate 0.56% among 360,000; Homeobox protein SIX1 (Homo sapiens) + Protein phosphatase EYA2 (Homo sapiens), …; in the data active = activity change below about -65%; inconclusive = about -30% to -65%; inactive = above about -30%; note: % is set by controls: 0 for no effect and ±100 for the full control effect; compound concentration not given in the record
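AlphaScreen luminescence read after one hour at 37 °C in darkness. Pin-transferred compounds met GST-Six1 and His-Eya2 protein (5X stock 250 nM/500 nM) plus glutathione donor and Ni-chelate acceptor beads (5X, 50 ug/mL).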
D2 potentiator = Beta-Arrestin HTS for Positive Allosteric Modulators of the Human D2 Dopamine Receptor: Potentiators; D(2) dopamine receptor (Homo sapiens), P14416; DiscoveRx D2 beta-arrestin cells, luminescence, 90 min; 100% = 57 uM dopamine signal; potentiation, % (concentration not given with the values); hit rate 0.23% among 360,000; AID 624464, 2012; active = potentiation of 50% or more; inconclusive = 30% to 50%; inactive = 30% or less;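 note: compound concentration not given in the record; tested on top of an EC20 dose of dopamine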
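PathHunter beta-arrestin assay in DiscoveRx D2 cells. Compounds were added with an EC20 of dopamine (50 nM final) for 90 min at 37 deg C. Luminescence was read 1 h after detection reagent, with 57 uM dopamine as the EC100 control.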
The depositor's hits bear a star; ? = inconclusive; . = no result given; & = joins results of further samples; [ ] = another dose, or the depositor's remark.

SMILES	Sfp PPTase inh	CtBP-E1A blk	D2 ag	PINK1 expr mod	TRPV1 PAM	Six1-Eya2 blk	D2 potentiator
O=C(COC(=O)/C=C/c1ccccc1)NCCNC(=O)COC(=O)/C=C/c1ccccc1	.	-4	-1.9	0.0%	9	-1	3
CCCCC(CC)C(=O)Nc1cc(C(=O)NCCC)ccc1N1CCC2(CC1)CC(c1cccc(Br)c1)=NO2 (stereo not given)	.	1	-1.1	-0.9%	-16	2	-2
CCC(=O)N1CCc2cc(S(=O)(=O)N3CCN(c4ccccc4Cl)CC3)ccc21	14%	3	-1.1	0.0%	-2	-1	-1
O=S(=O)(c1cc(C(F)(F)F)ccc1Cl)N1CCN(c2ccccn2)CC1	3%	.	-1.4	2.4%	-1	7	-11
CCc1nc2c(sc3nc4c(cc32)COC(C)(C)C4)c(=O)n1Cc1ccccc1	-1%	-1	-1.2	-0.5%[38.3 µM]	-7	1	0
CCOC(=O)[C@H]1[C@H]2COc3cc(OC)ccc3[C@@H]2N2C(=O)CN(Cc3ccc(C)cc3)C(=O)[C@@]12C	.	-4	-0.7	0.2%	-9	-5	-6
Fc1ccc(Nc2nc(Oc3ccccc3F)nc(N3CCCC3)n2)cc1	?	-6	-2.6	3.8%[38.3 µM]	-1	-4	-13
COC(=O)Cn1c(=O)oc2ccc(C)cc21	8%	7	-0.2	0.2%	0	14	0
C/C(Cc1ccccc1)=N\NC(=O)CNC(=O)c1ccc(Cl)cc1	0%	12	-2.6	-1.4%	3	9	0
CCOC(=O)c1sc(N(Cc2ccccc2)C(=O)COC(=O)c2ccc(O)cc2)nc1C	-4%	-2	11	-3.4%	23	-27	-1
COc1ccc(-c2ccc(=O)n(Cc3cccc(Cl)c3)n2)cc1	-26%	7	-0.9	9.1%	-11	4	-3
CCSc1nn2c(=O)c3ccccc3nc2s1	3%	?	-2.9	-0.7%	9	?	0
O=C(O)c1ccc(-c2ccc(/C=C3\NC(=O)N(Cc4ccc(Cl)cc4)C3=O)o2)cc1	-18%	.	-6.1	3.8%	9	7	-12
O=C(O)CCC(=O)N1CCC[C@H]1C(=O)O	-3%	7	-4.4	0.5%	-11	1	-5
Cc1nn(C)cc1/C=N/NC(=S)Nc1ccccc1	25µM*	-21	0.2	-0.2%[38.3 µM]	-8	-12	7
COc1cccc(-n2c(SCC(=O)OC(C)C)nnc2-c2cccnc2)c1	-7%	7	0.6	.	-41	4	10
COc1ccc(/C=C/C(=O)c2ccccc2)cc1Cn1nnc2ccccc21	-4%	10	-3.4	-3.1%	-1	-6	-14
COC1=CC(=O)OC(C)(c2ccccc2)C1 (stereo not given)	.	7	1.6	0.1%	.	2	-5
COCCN(C(=O)Nc1ccc(OC)cc1OC)C1CCN(C(C)=O)CC1	20%	6	-1.2	-0.1%	2	-12	-7
CCN(c1cccc(C(F)(F)F)c1)S(=O)(=O)c1ccc2c(c1)CCN2C(C)=O	5%	3	-1.1	6.4%	-13	1	-26
C/C(=N\NC(=O)CNC(=O)c1ccc2c(c1)OCCO2)c1ccco1	15%	0	-4.5	-0.2%	-1	-22	-13
CC(O)CCc1ccc(O)cc1 (stereo not given)	14%	0	-2.1	-1.7%	3	7	3
COC(=O)c1cc(OC)c(OC)cc1-n1cnc2cc(OC)c(OC)cc2c1=O	25%	-1	-1.1	4.6%[38.3 µM]	-13	3	-4
COc1ccccc1C1=NN(C(=S)Nc2ccccc2)C(c2ccco2)C1 (stereo not given)	-74%	-10	1.1	5.6%	-3	-24	-8
Cc1ccc(-c2ccc([C@H]3[C@@H]4C=CCC[C@@]4(C)C(=O)N3Cc3ccccc3)c(F)c2)cc1	?	.	-1.5	?	18	-9	-10
Further entries
SMILES	Sfp PPTase inh	CtBP-E1A blk	D2 ag	PINK1 expr mod	TRPV1 PAM	Six1-Eya2 blk	D2 potentiator
Cc1ccc(SCC(=O)N=C2NC(=O)CS2)cc1	0%	.	3.7	-0.6%	10	1	-25
Cn1cc(-c2csc(C(O)c3ccc(F)cc3)n2)cn1 (stereo not given)	.	3	2.5	0.0%	.	2	-7
Cn1c(Cl)nc2c1c(=O)n(Cc1cccc(Br)c1)c(=O)n2C	-11%	-6	-1.1	6.1%[38.3 µM]	-2	-6	4
CCCN1CCC(NC(=O)Nc2ccc(OC)c(OC)c2)CC1	13%	10	-0.8	2.5%	?	1	-8
CCc1ccc(-c2nc(CN3CCC(C(=O)NCCc4ccc(OC)c(OC)c4)CC3)c(C)o2)cc1	6%	-1	-0.1&0.1	-2.4%	-7	-2	13
CC1CC(C)CN(C(=O)c2ccc(S(=O)(=O)N3CC(C)CC(C)C3)cc2)C1 (stereo not given)	0%	3	-0.5	3.6%	-17	0	-6
CCOc1ncccc1C(=O)Nc1cccc(S(=O)(=O)N2CCCCC2)c1	.	.	-1.0	0.6%	1	-2	-4
O=C(CC1NCCNC1=O)NC1Cc2ccccc2C1 (stereo not given)	16%	6	3.0	0.4%	-1	6	4
O=C(O)CCN1C(=O)c2ccccc2C1=O	14%	4	-1.6	-1.0%	-10	9	-14
CC(C)CC(=O)Nc1c2c(nn1-c1ccc(F)cc1)CSC2	-20%	2	-6.3	2.8%	-4	0	1
CCOc1ccc(S(=O)(=O)NCC(=O)NC2CCCCC2)cc1	.	-3	0.7	1.5%	1	-1	0
Cc1ccc(C(=O)COc2cc(C)nc3nncn23)cc1	26%	.	-3.6	1.4%	-3	0	-18
O=S(=O)(NC1CCCC1)c1cc(F)ccc1F	5%	-9	2.5	1.1%	?	2	3
COc1ccc(NC(=O)CSc2nnc(N)s2)c([N+](=O)[O-])c1	3%	-3	4.9	-0.7%	-1	-11	4
O=C(c1noc2c1CCCC2)N1CCCC(N2CCN(c3ccccc3F)CC2)C1 (stereo not given)	5%	1	1.7	-0.2%	-8	0	-20
COc1ccc([C@@H]2CC(=O)c3c(O)cc(O[C@@H]4OC(CO[C@@H]5OC(C)[C@H](O)[C@@H](O)[C@H]5O)[C@@H](O)[C@H](O)[C@H]4O)cc3O2)cc1O (stereo not given in full)	.	0	2.8	-0.7%	.	11	-20
CC(=O)Nc1ccc(C(=O)N/C(=C/c2ccccc2)C(=O)NCc2ccco2)cc1	17%	1	-2.7	3.1%	-4	0	-13
O=c1c2ccccc2c2ccccc2c(=O)n1Nc1ccccc1	.	4	-6.6	3.5%	.	0	-2
CCC(C)c1ccc(NC(=S)NCc2ccccc2OC)cc1 (stereo not given)	-23%	-7	-5.0	17%	-12	-15	-10
CCn1c(=O)c2cc(C(=O)NC(C)C)sc2c2ccccc21	2%	9	-3.9	3.2%	-29	-1	-10
Cc1noc(C)c1S(=O)(=O)N1CCC(C(=O)Nc2ccccn2)CC1	-4%	3	-2.0	-2.2%	3	1	15
Cc1cccc(NC(=O)CCS(=O)(=O)c2cc3c(cc2Cl)NC(=O)CO3)c1	26%	2	-1.4	-2.2%	2	0	-5
Cc1cccc(C(=O)NNc2ncnc3c2cnn3C)c1	15%	-4	-3.5	-0.6%	0	-3	-3
Cc1cccc(/C=N/NC(=O)c2ccc(F)cc2)n1	40µM*	.	3.5	-0.2%	2	-10	-9
CC(/C=C/C1(O)C(C)CC(O)CC1(C)C)OC1OC(CO)C(O)C(O)C1O (stereo not given)	-1%	5	3.1	-0.1%	7	-1	-2

Filtered by structure: the entries above with bromine (2)
SMILES	Sfp PPTase inh	CtBP-E1A blk	D2 ag	PINK1 expr mod	TRPV1 PAM	Six1-Eya2 blk	D2 potentiator
CCCCC(CC)C(=O)Nc1cc(C(=O)NCCC)ccc1N1CCC2(CC1)CC(c1cccc(Br)c1)=NO2 (stereo not given)	.	1	-1.1	-0.9%	-16	2	-2
Cn1c(Cl)nc2c1c(=O)n(Cc1cccc(Br)c1)c(=O)n2C	-11%	-6	-1.1	6.1%[38.3 µM]	-2	-6	4

(cont.)
SMILES	Sfp PPTase inh	CtBP-E1A blk	D2 ag	PINK1 expr mod	TRPV1 PAM	Six1-Eya2 blk	D2 potentiator
COc1ccc(NC(=O)CSc2ccccc2)c(OC)c1	-7%	-3	-1.3	1.0%	-7	6	-3
O=C(O)/C(=C\c1cccs1)c1ccc(F)cc1	9%	.	-0.2	-0.8%	-9	4	-1
CC1=C(C)CC(C(=O)Nc2cccc([N+](=O)[O-])c2)C(C(=O)O)C1 (stereo not given)	7%	7	-5.7	-2.5%	9	11	-23
O=[N+]([O-])c1ccc(C2NS(=O)(=O)N=C3CCCCCN32)cc1 (stereo not given)	50µM*	.	?	0.2%	6	4	7
CCCCCCC1CCC(C(=O)NC(CCSC)C(=O)NC(C(=O)OC)C(C)C)CC1 (stereo not given)	-2%	8	-3.1	8.4%	2	1	-11
CC1CCN(c2ccccc2NC(=S)NC(=O)C(C)(C)C)CC1	4%	-13	7.0	3.0%	-3	-13	-5
COc1cccc(-c2ccccc2C2=CC(=O)CC(C)(C)C2=O)c1	.	-2	-7.9	1.1%	.	-9	-1
CCOCCCn1c(=S)[nH]c2cc(C(=O)N3CCC(C(N)=O)CC3)ccc2c1=O	-24%	0	-2.8	1.0%[38.3 µM]	1	0	-3
O=C1/C(=C/c2ccncc2)SC(=S)N1C1CCS(=O)(=O)C1 (stereo not given)	50µM*	-16	-2.5	8.4%	5	-7	-8
COc1cccc(Oc2ccc3nnc(C(F)(F)F)n3n2)c1	-1%	0	0.3	-1.5%	7	17	10
Cc1ccc(S(=O)(=O)N2CCN(c3ncccn3)CC2)cc1C	.	-1	0.2	1.1%	.	4	-1
CC(=O)C1C(c2ccccc2)c2c(n[nH]c2C)CC1(C)O (stereo not given)	2%	6	1.1	1.5%	9	7	-19
CCCCN1C(=O)NC(NC(=O)c2ccco2)(C(F)(F)F)C1=O (stereo not given)	5%	3	-1.4	0.6%[38.3 µM]	?	-1	2
S=C1NCN(Cc2ccco2)CN1c1ccccc1	8%	-1	-4.3	0.0%	-11	1	-1
Cc1cccc(-n2cnc(C(=O)NC3CCCCCC3)c2)n1	17%	2	-1.1	1.0%	8	6	-3
